# GIRK2 activ = activators of human GIRK2 potassium channels. HEK293-GIRK2 thallium flux, Thallos fluorescence. calls only for hits at 25 µM. 63,000 compounds, 0.05% hits. AID 1259325, 2017;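 active means among the strongest 0.2% of first-round signals and kept after retests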;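 further: first round at about 10 µM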
# Target sequence (P48051 whole entry, looked up): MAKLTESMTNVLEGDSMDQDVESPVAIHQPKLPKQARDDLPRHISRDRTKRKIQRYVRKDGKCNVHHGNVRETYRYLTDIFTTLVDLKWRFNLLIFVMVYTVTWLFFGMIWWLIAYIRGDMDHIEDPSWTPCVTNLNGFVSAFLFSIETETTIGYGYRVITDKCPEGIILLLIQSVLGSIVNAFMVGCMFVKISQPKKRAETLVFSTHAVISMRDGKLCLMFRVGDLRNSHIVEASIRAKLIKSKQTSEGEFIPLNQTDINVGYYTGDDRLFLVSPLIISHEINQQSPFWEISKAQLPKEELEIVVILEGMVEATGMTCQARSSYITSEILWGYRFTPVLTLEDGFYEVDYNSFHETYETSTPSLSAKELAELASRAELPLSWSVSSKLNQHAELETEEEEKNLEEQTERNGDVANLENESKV
# Calls only; i = inactive. This is a subset; count on the stated rates, not on these rows.
SMILES,GIRK2 activ
COc1ccc(CCNS(=O)(=O)c2cc3c4c(c2)CCN4C(=O)CC3)cc1OC,i
COc1ccccc1CNC(=O)c1cn(C)nn1,i
CN(C)CCN(C(=O)CCCS(=O)(=O)c1ccccc1)c1nc2c(Cl)cccc2s1,i
O=C(Cc1cccs1)OC1CN(c2nc3c(C(F)(F)F)cccc3s2)C1,i
CCN(CC)CCn1c(C)cn2c3c(=O)n(CCCc4ccccc4)c(=O)n(C)c3nc12,i
Cc1ccc(NC(=O)CC2C(=O)N(c3ccccc3)C(=S)N2Nc2ccccc2)cc1 (stereo not given),i
COc1ccccc1/C=C/C(=O)Nc1sc2c(c1C#N)CCC(C)C2 (stereo not given),i
Cc1cc(C(=O)NC2CC(=O)N(C3CC3)C2)no1 (stereo not given),i
COc1nn(C)cc1C(=O)Nc1ccc(-c2nc(C)no2)cc1,i
CCOc1ccc(CC(=O)Nc2ccc(-n3nnn(CCOC)c3=O)cc2)cc1,i
O=C(NC1CCN(c2ccc(-c3ccccc3F)nn2)C1)c1ccco1 (stereo not given),i
CC(C)OCC(O)Cn1c(N2CCCC2)nc2c1c(=O)n(C)c(=O)n2C (stereo not given),i
CC1C(=O)N2CCCc3cc(NC(=O)C(=O)NCC4(O)CCOc5ccccc54)cc1c32 (stereo not given),i
CC(C)CCNC(=O)C(=O)Nc1ccc(N2CCCS2(=O)=O)cc1,i
CC1(C)OCC2(CO1)CN(C(=O)Cc1noc3ccccc13)C2,i
COc1ccccc1CCNC(=O)Cn1nc(C)ccc1=O,i
O=c1[nH]c2cc(-c3nc(-c4ccccc4)no3)ccc2c(=O)n1Cc1ccc2c(c1)OCO2,i
CCc1cccc(C)c1NC(=O)CSc1nccnc1N1CCCC(C)C1 (stereo not given),i
CCOc1ccc(C(=O)Nc2cnc(N(C)C)nc2)cc1,i
CC1CCN(CC(O)COc2ccccc2-c2ccccc2)CC1 (stereo not given),i
CCc1cc(=O)[nH]c(SCc2nc(-c3ccc(F)c(Cl)c3)no2)n1,i
COC(=O)c1cc(OC)c(OC)cc1NC(=O)c1ccc(-c2ccccc2F)o1,i
O=C(Nc1ccccc1)OC1CCCC(NC(=O)c2nc3ccccc3s2)C1 (stereo not given),i
O=C(Cn1c(=O)oc2ccccc21)NCc1cnn2ccccc12,i
CC(C)Sc1nnc(N2CCN(c3ccc(F)cc3)CC2)s1,i
C[C@@H]1O[C@@H](O[C@H]2[C@H](O[C@H]3CC[C@@]4(C)C(CC[C@]5(C)C4CC=C4[C@@H]6CC(C)(C)CC[C@]6(C(=O)O)CC[C@]45C)[C@]3(C)CO)OC[C@H](O)[C@@H]2O)[C@H](O)[C@H](O[C@@H]2OC[C@@H](O)[C@H](O)[C@H]2O)[C@H]1O (stereo not given in full),i
COc1cccc(N2C(=O)/C(=C/c3ccccc3OC)SC2=S)c1,i
O=C(Cn1cc(-c2nc(C3CC3)no2)ccc1=O)NCc1ccccc1Br,i
CCOC(=O)c1ccccc1NC(=O)CN1CC(c2nc(C3CC3)no2)C1,i
CCOC(=O)c1ccc(-n2c(C)cn3c4c(=O)n(C)c(=O)n(C)c4nc23)cc1,i
Cn1nc(C2CCN(C(=O)C(C)(C)Oc3ccc(Cl)cc3)CC2)n(-c2ccccc2)c1=O,i
Cc1ccc2c(c1)N(Cc1nc(-c3ccc(Br)cc3)no1)C(=O)CO2,i
CCCCOc1ccc(NC(=O)NCCn2nc(C(F)(F)F)n(C)c2=O)cc1,i
COc1ccccc1N1CCN(C(=O)C2(c3ccccc3OC)CCOCC2)CC1,i
COc1ccc(CCNc2c([N+](=O)[O-])c(=O)n(C)c3ccccc23)cc1,i
Cc1cc(C)cc(N2CCCn3c2nc2c3c(=O)n(CCN3CCOCC3)c(=O)n2C)c1,i
CC(=O)Nc1ccc(OCC(O)CNC2CCCCCC2)cc1 (stereo not given),i
Cc1cccc(S(=O)(=O)c2c(N)n(/N=C\c3ccco3)c3nc4ccccc4nc23)c1,i
COC(=O)N1CCC(CNC(=O)Cc2cccc3ccccc23)CC1,i
COCCNC(=O)Cc1ccc(NC(=O)Nc2cc(Cl)ccc2OC)cc1,i
Cc1nc(C)c(C(=O)N2CC(c3nc(-c4cccc(Cl)c4)no3)C2)s1,i
COc1ccc(C2C(C(=O)Nc3ccc(C)cc3C)C(C)Nc3ncnn32)c(OC)c1 (stereo not given),i
NS(=O)(=O)c1ccc(CNC(=O)C2(c3cc(-c4ccccc4)on3)CC2)cc1,i
CN(C)CC1CSCCCN1C(=O)CSc1ccc(F)cc1 (stereo not given),i
COC(=O)C1=C(C)NC(C)=C(C(=O)OCC(C)C)C1c1ccccc1[N+](=O)[O-] (stereo not given),i
CCc1nc(-c2ccc(-n3ccc(C(=O)NC4CCCC4)n3)cc2)no1,i
COCCNC(=O)C(=O)Nc1ccc(-c2nnc(N(C)c3ccc(OC)cc3)s2)cc1,i
Cc1nc(-c2nnc(NC(=O)CSCc3ccccc3)o2)cs1,i
Cc1c(C(=O)Nc2ccc(S(=O)(=O)N3CCOCC3)cc2)oc2ccccc12,i
COC(=O)c1ccc(C(=O)Nc2ccccc2S(C)(=O)=O)cc1,i
Cn1c(=O)c(Sc2ccccc2F)cc2cnc(NC3CCOCC3)nc21,i
O=C(Cn1c(=O)oc2ccccc21)N1CCC(Cn2c(C(F)(F)F)nc3ccccc32)CC1,i
Cc1nn(C)cc1C(=O)Nc1ccc(C(F)(F)F)cc1,i
COc1ccc(Cc2nnc(C3CCN(C(=O)c4ccco4)CC3)s2)cc1,i
Cc1c(NC(=O)C(C)Cn2nc(-c3ccco3)ccc2=O)c(=O)n(-c2ccccc2)n1C (stereo not given),i
N#Cc1ccccc1Cn1cccc(-c2nc(-c3ccsc3)no2)c1=O,i
Cc1ccc2c(c1)c(=O)c(-c1nc(-c3ccc(Br)cc3)no1)cn2C,i
COc1ccc(C)cc1NC(=O)CCc1csc(NC(=O)c2ccc(=O)[nH]c2)n1,i
O=C(CSc1nc2ccccc2o1)N1CC(c2nc(-c3ccncc3)no2)C1,i
CC1CCc2nc(NC(=O)CCS(=O)(=O)Cc3ccccc3)sc2C1 (stereo not given),i
# (listing goes on)
SMILES,GIRK2 activ
COc1ccc(N2CCCn3c2nc2c3c(=O)n(CCCO)c(=O)n2C)cc1,i
CC(=O)c1ccc(NC(=O)Cn2cnc3c(c2=O)CCCC3)cc1,i
CC(C)(C)NC(=O)C(=O)c1cn(CC(=O)N2CCOCC2)c2ccccc12,i
Nc1nc(N(CCO)Cc2ccccc2)ncc1[N+](=O)[O-],i
O=C(COc1ccc(Cl)cc1Cl)N(Cc1ccoc1)Cc1cccs1,i
CCOC(=O)OC(C)OC1=C(C(=O)Nc2ccccn2)N(C)S(=O)(=O)c2ccccc21 (stereo not given),i
COc1cc(-c2noc(Cn3ccn(-c4ccccc4)c(=O)c3=O)n2)cc(OC)c1OC,i
COc1ccc(C(=O)N2CCCC(c3nnc(Cc4ccc(F)cc4)o3)C2)cc1 (stereo not given),i
COC(=O)Cn1c(=O)c2c(nc(-n3nc(C)cc3C)n2CCC(C)C)n(C)c1=O,i
Cn1cc(OCc2ccccc2)c(=O)cc1C(=O)Nc1ccc(F)c(F)c1,i
Cc1cc(=O)[nH]c(-n2nc(-c3cccs3)cc2NC(=O)CCC2CCCCC2)n1,i
CC1CN(C=O)c2ccccc2N(Cc2c(F)cccc2Cl)C1=O (stereo not given),i
COc1ccc(N2C(=O)C(F)(F)C2c2ccc(Br)cc2)cc1 (stereo not given),i
COc1ccc(S(=O)(=O)NCC#CCN2CCOCC2)cc1C,i
COc1ccc(NC(=O)Cn2c(=O)n(CCCCC(=O)NCCC(C)C)c(=O)c3ccccc32)cc1,i
COc1ccc(CNC23CC4CC(CC(C4)C2)C3)cc1,i
N=c1ccc2c(-c3ccccc3C(=O)O)c3ccc(N)cc3oc-2c1,i
COc1ccccc1-c1ccc(N2CCCC(C(=O)Nc3ccccc3C(N)=O)C2)nn1 (stereo not given),i
COC(=O)c1sccc1S(=O)(=O)NCCn1nc(-c2ccccn2)n(C)c1=O,i
COc1nn(C)cc1C(=O)NCCn1nc(C(F)(F)F)n(C)c1=O,i
CCc1cccc(NC(=O)Cn2cc(S(=O)(=O)N3CCOCC3)ccc2=O)c1,i
O=C(/C=C/c1cccs1)c1cc(Cl)ccc1O,i
COC(=O)c1ccc(Cn2cccc(-c3nc(C)no3)c2=O)o1,i
CCOc1ccccc1NC(=O)Cn1cccc(S(=O)(=O)N2CCC(C)CC2)c1=O,i
CC12CC(c3ccccc3O1)C(C(=O)N1CCN(c3ccccc3F)CC1)C(=O)N2 (stereo not given),i
Cc1nc2ccccc2n1Cc1ccc(C(=O)NCc2ccccc2)o1,i
CS(=O)(=O)N1CCc2nc(NC(=O)c3cncc(Br)c3)sc2C1,i
O=C(CSc1nccnc1N1CCN(c2ccccc2)CC1)Nc1ccc2c(c1)OCCO2,i
COc1ccc(CC(=O)N2CCN(C3=NN=C(c4cccs4)CS3)CC2)cc1,i
CNC(=S)NNC(=O)c1ccccc1O,i
COc1cccc(-n2c3c(c(=S)[nH]c2=O)CCC3)c1,i
COc1ccc(NC(=O)c2cccc(S(=O)(=O)N3CCOCC3)c2)cc1,i
CC1=NN(CCN2CCc3ccccc3C2)c2nc3c(c(=O)n(C)c(=O)n3C)n2C1,i
CCc1ccc(N2C(=O)SC(Nc3ccc(S(N)(=O)=O)cc3)C2=O)cc1 (stereo not given),i
COc1ccc(C)cc1NC(=O)CSc1nccn1-c1ccc(C(=O)NCc2ccco2)cc1,i
Cc1ccc(NC(=O)Cn2c(=O)cnc3cc(C(=O)NC4CCCC4)ccc32)c(C)c1,i
C#CCn1c(=NC(=O)c2ccnn2CC)sc2cc(S(C)(=O)=O)ccc21,i
COc1ccc(CNC(=O)NCC2CCN(C(=O)c3ccoc3)CC2)cc1OC,i
Cc1cn2c3c(=O)n(Cc4ccccc4)c(=O)n(C)c3nc2n1CCO,i
CC(C(=O)NCc1cccs1)n1cc(-c2nc(-c3ccccc3F)no2)ccc1=O (stereo not given),i
Cc1cccnc1NC(=O)C(C)n1nc(-c2cccs2)ccc1=O (stereo not given),i
O=C(c1cccc(-n2ccc3ccccc32)c1)N1CCOCC1,i
Cc1nnc(NC(=O)c2cc(=O)c(OCc3ccc(F)cc3)c[nH]2)s1,i
CCOc1ccccc1-c1nc(CSc2nc3ccccc3c(=O)n2C)c(C)o1,i
Cc1ccc(C)n1CCCC(=O)Nc1ccc2c(c1)OCCO2,i
CS(=O)(=O)c1ccc(NC(=O)c2ccc(Cl)c(S(=O)(=O)N3CCCCCC3)c2)cc1,i
COc1cc(OC)c(NC(=O)Cn2nc3c(Oc4cccc(C)c4C)nccn3c2=O)cc1Cl,i
CC1CCN(S(=O)(=O)c2ccc(C3CCCCC3)cc2)CC1,i
CCc1ccc(C(=O)NCCCN2CCN(c3ccccc3)CC2)cc1,i
CCC1CCCCN1S(=O)(=O)c1ccc(N)cc1 (stereo not given),i
Cc1ccc(C)c(S(=O)(=O)NCc2ccc(C(=O)N3CC(C)OC(C)C3)cc2)c1 (stereo not given),i
O=C(CN1CCC(c2nnc(C(F)(F)F)o2)CC1)NCc1ccco1,i
O=C(NCc1n[nH]c(=O)c2ccccc12)C(c1ccccc1)c1ccccc1,i
Cc1cc(C)n(-c2ccc(C(=O)NCCC3=CCCCC3)nn2)n1,i
CC1=C(C(=S)Nc2ccccc2)C(c2ccccc2)NC(=S)N1 (stereo not given),i
COC(=O)c1ccc(C(=O)NCC(C)(O)c2ccco2)cc1 (stereo not given),i
Cc1cc(NS(=O)(=O)c2ccc(NC(=O)COc3ccc(C(C)C)c(C)c3)cc2)no1,i
Cc1cc(Cl)cc2c(N=Nc3ccc(S(N)(=O)=O)cc3)c(O)[nH]c12,i
COc1ccc(-c2noc(CN3N=NC4C(=O)N(c5ccc(F)c(Cl)c5)C(=O)C43)n2)c(OC)c1 (stereo not given),i
Cc1cc(C)n(-c2ccc(=O)n(CCNC(=O)Cn3nc(-c4ccco4)ccc3=O)n2)n1,i
# (next part)
SMILES,GIRK2 activ
Cc1ccc2nc(C3CN(C(=O)c4c(-c5ccccc5Cl)noc4C)C3)[nH]c2c1,i
COC(=O)c1ccc(C2CCN(C(=O)Cc3cccc(OC)c3)CC2)cc1,i
CN(C)S(=O)(=O)c1ccc(C(=O)N2CCN(Cc3nnnn3-c3ccc(Cl)cc3)CC2)cc1,i
COCCN(Cc1ccncc1)C(=O)c1ccsc1,i

# Arranged by formula weight (rising): part of the list above
SMILES,GIRK2 activ
COCCN(Cc1ccncc1)C(=O)c1ccsc1,i
COC(=O)c1ccc(C2CCN(C(=O)Cc3cccc(OC)c3)CC2)cc1,i
COc1ccc(-c2noc(CN3N=NC4C(=O)N(c5ccc(F)c(Cl)c5)C(=O)C43)n2)c(OC)c1 (stereo not given),i

# Filtered by structure, those above containing two or more sulfur atoms (14)
SMILES,GIRK2 activ
CN(C)CCN(C(=O)CCCS(=O)(=O)c1ccccc1)c1nc2c(Cl)cccc2s1,i
O=C(Cc1cccs1)OC1CN(c2nc3c(C(F)(F)F)cccc3s2)C1,i
CC(C)Sc1nnc(N2CCN(c3ccc(F)cc3)CC2)s1,i
COc1cccc(N2C(=O)/C(=C/c3ccccc3OC)SC2=S)c1,i
CN(C)CC1CSCCCN1C(=O)CSc1ccc(F)cc1 (stereo not given),i
Cc1nc(-c2nnc(NC(=O)CSCc3ccccc3)o2)cs1,i
CC1CCc2nc(NC(=O)CCS(=O)(=O)Cc3ccccc3)sc2C1 (stereo not given),i
COC(=O)c1sccc1S(=O)(=O)NCCn1nc(-c2ccccn2)n(C)c1=O,i
CS(=O)(=O)N1CCc2nc(NC(=O)c3cncc(Br)c3)sc2C1,i
COc1ccc(CC(=O)N2CCN(C3=NN=C(c4cccs4)CS3)CC2)cc1,i
CCc1ccc(N2C(=O)SC(Nc3ccc(S(N)(=O)=O)cc3)C2=O)cc1 (stereo not given),i
C#CCn1c(=NC(=O)c2ccnn2CC)sc2cc(S(C)(=O)=O)ccc21,i
CS(=O)(=O)c1ccc(NC(=O)c2ccc(Cl)c(S(=O)(=O)N3CCCCCC3)c2)cc1,i
CC1=C(C(=S)Nc2ccccc2)C(c2ccccc2)NC(=S)N1 (stereo not given),i
